TRPML1 agonist – human mucolipin-1 channel agonism; Q9GZU1; TRPML1-expressing cells, Ca2+ dye fluorescence, FDSS; host cell line not named in the record; reference of the full effect not given here; activation, % (concentration not given with the values); 410,000 compounds, 0.12% hits; in the data active = activation above about 50%; inconclusive = about 30% to 50%; inactive = below about 30%; further: 0% is about no effect; the text of the record puts the active cut at 80%
Target sequence (Q9GZU1 whole entry, looked up): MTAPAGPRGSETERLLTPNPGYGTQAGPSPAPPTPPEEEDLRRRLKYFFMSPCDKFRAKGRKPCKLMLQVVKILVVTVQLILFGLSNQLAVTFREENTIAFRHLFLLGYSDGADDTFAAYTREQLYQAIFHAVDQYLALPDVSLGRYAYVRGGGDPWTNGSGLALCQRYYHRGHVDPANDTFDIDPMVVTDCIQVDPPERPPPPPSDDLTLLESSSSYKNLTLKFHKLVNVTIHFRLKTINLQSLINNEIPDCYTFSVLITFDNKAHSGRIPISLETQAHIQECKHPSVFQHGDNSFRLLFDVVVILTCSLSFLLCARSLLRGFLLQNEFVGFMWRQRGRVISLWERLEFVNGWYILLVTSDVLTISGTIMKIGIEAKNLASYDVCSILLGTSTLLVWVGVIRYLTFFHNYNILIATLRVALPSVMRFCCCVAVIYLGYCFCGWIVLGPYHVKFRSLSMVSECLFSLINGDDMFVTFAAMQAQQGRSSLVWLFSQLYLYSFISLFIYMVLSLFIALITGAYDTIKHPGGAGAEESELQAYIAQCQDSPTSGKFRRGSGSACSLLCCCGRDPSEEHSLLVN
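Kinetic FDSS Ca2+ read in Tet-induced TRPML1-DL cells (ABD Ca8 dye plus quencher, 45-90 min RT loading): baseline, then compound, then 110 s agonist window; EC80 agonist 54-4 at 4uM final added afterwards for a 110 s antagonist window.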
gsp antag – gsp mutant antagonism; Potency, µM (titrated, usually from 76.9 µM), for inactives: at the top dose activity change, negative = inhibition, usual class: inhibitors; AID 624288; 340,000 compounds, 0.4% hits; gsp-mutant cells, cAMP HTRF, 30 min; control for the full effect not named in the record; active = falling curve of any shape with a large fitted effect; inconclusive = falling curve, mostly with a smaller effect; inactive = flat or rising curve; cell line not stated here;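 further: intracellular cAMP measured with PDE inhibitor Ro 20-1724 present during compound exposure; potency means the concentration at half of the fitted maximal effect; on the % scale 0 is the no-effect control and ±100 the full control effect; nearly all actives have a fitted effect of over 65% in size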
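HTRF cAMP read-out (cAMP-d2 plus anti-cAMP antibody-K in lysis buffer, 30 min RT). Before lysis, cells are exposed to compounds with […] for 30 min at 37C in DPBS containing Ca/Mg, BSA and Tween 20.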
gsp ag – activates gsp, the McCune-Albright syndrome mutation. gsp mutant cells, cAMP HTRF, 30 min; control for the full effect not named in the record. Potency, µM (doses to about 76.9 µM), for inactives: at the highest dose activation (cAMP increase), actives largely listed as activators. 340,000 compounds, 0.13% hits; active = well fitted activation curve with a large enough effect; inconclusive = small, poorly fitted or top-dose-only effect, or another doubt; inactive = no such curve, though single readings can be large or run the other way; cell line not stated here;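 further: phosphodiesterase inhibitor Ro 20-1724 added with compounds to block cAMP breakdown; potency means the concentration at half of the fitted maximal effect; nearly all actives have a fitted effect of over 60% in size; about a fifth of the inactives were tested at one dose only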
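Cells in DMEM/10% FBS with G418 were pretreated with compounds in DMSO plus […] (300 uM stock) for 30 min at 37C. cAMP was measured by HTRF (cAMP-d2 plus anti-cAMP antibody-K) after 30 min at room temperature.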
ClpP mod – qHTS Assay for Activators of ClpP; AID 651965, 2013; purified B. subtilis ClpP, FRET peptide cleavage, 20 min; Potency, µM (series often up to 57.5 µM), inactives show at the highest dose activity change, negative = active; 340,000 compounds, 1.9% hits; ATP-dependent Clp protease proteolytic subunit (Bacillus subtilis (strain 168)), P80244; active = well fitted falling curve with a large enough effect; inconclusive = small, poorly fitted or top-dose-only effect; inactive = no such curve, though single readings can be large or run the other way; further: potency means the concentration at half of the fitted maximal effect; the source files actives as falling curves though it sought activators and does not explain the sign; nearly all actives have a fitted effect of over 65% in size; many hits overshoot -100%
Target sequence (P80244 whole entry, looked up): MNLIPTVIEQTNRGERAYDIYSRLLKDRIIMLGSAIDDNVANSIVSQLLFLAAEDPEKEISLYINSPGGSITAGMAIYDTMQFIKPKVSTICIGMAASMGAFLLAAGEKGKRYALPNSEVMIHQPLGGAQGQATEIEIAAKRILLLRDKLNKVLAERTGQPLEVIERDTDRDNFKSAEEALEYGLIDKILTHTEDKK
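Buffer: 100 mM Tris/HCl pH8, 100 mM KCl, 0.05% low protease BSA, 2.5% glycerol, 0.01% Tween-20. ClpP 10 microg/mL final; 20 min RT; delta FRET normalized to ADEP and DMSO controls.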
Menin-MLL FL inh – displaces fluorescein MLL peptide from human menin; Fluorescence polarization, fluorescein-MLL peptide displacement from menin; FP activity change, % at 61.4 µM; 290,000 tested, under 10 active; inconclusive = falling polarisation curve, or a change in total fluorescence; inactive = total fluorescence flat and polarisation flat or rising; no compound was filed as active; the % refers to the polarisation; negative = inhibition;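 further: % of control where 0% means no effect; inhibitors lower the polarisation; unlabelled MLL peptide was the positive control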
TRPML1 inh – human mucolipin-1 channel inhibition | AID 624415 | TRPML1-inducible cells, Ca2+ dye fluorescence, FDSS; hits give low values; inhibition of EC80 agonist-evoked calcium signal | 390,000 compounds, 0.02% hits | activity change, negative = inhibition, % (concentration not given with the values) | Q9GZU1; in the data active means activity change below about -50%; inconclusive means about -30% to -50%; inactive means above about -30%;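 further: stimulus is agonist 54-4 at its EC80 concentration; on the % scale 0 is the no-effect control and ±100 the full control effect; the text of the record puts the active cut at -80%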
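Tet-induced TRPML1-DL cells loaded with Ca8 no-wash calcium dye were read kinetically on FDSS. Compound addition was followed by EC80 agonist 54-4 (4 uM final); inhibition was read over 110 s.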
* hit, by the source's call; ? = inconclusive; . = no result given; [ ] = dose if it differs, or a comment.

SMILES	TRPML1 agonist	gsp antag	gsp ag	ClpP mod	Menin-MLL FL inh	TRPML1 inh
CN(CC(=O)Nc1ccc(S(=O)(=O)N2CCCC2)cc1)CC(=O)Nc1cccc(F)c1	0.0	-15%	-2%[15.4 µM]	.	-3.9	-10
O=C(Nc1cccc(NC(=O)c2ccccc2Cl)c1)c1cccs1	0.8	-30%	-1%[15.4 µM]	-2.0%	2.7	-3
CCN1CCc2c(sc(NC(=O)c3ccc(S(=O)(=O)N(CCOC)CCOC)cc3)c2C(N)=O)C1	0.3	.	.	0.6%	.	14
Cc1cccc(OCC(=O)Nc2cccc(C(=O)OCc3cc(=O)n4nc(C(C)C)sc4n3)c2)c1	2.1	.	.	-5.5%	.	-8
O=[N+]([O-])c1ccc(O)c(/C=N/Nc2ccccc2Cl)c1	0.4	-41%	-3%[15.4 µM]	.	-6.9	-2
COc1cccc(NC(=S)N2CCN(S(=O)(=O)c3ccc(F)cc3)CC2)c1	0.5	1%	-16%	1.4%	.	-8
COCCCNC(=O)C(=O)NC1CCCCC1C (centres undefined)	3.4	12%	-11%	-1.8%	-1.4	3
CC(C)Nc1ccc(-c2nc(-c3ccncc3)no2)cc1[N+](=O)[O-]	0.1	.	.	-0.1%	.	1
Cc1ccccc1NC(=O)CSCCN1C(=O)c2ccccc2C1=O	-1.1	14%	8%	.	2.3	2
COc1ccc(N2CCN(Cc3cc(=O)oc4ccc(C)cc34)CC2)cc1	-0.2	-5%	?	-1.2%	2.9	5
CC1(C)N=C(SCc2ccccc2Cl)c2ccccc2N1	-0.1	.	.	3.8%	.	-12
CC1(C)Cc2c(C#N)c(N)n(-c3ccccc3)c(=S)c2CO1	1.2	13%	-7%[15.4 µM]	.	-1.5	-13
O=C(c1ccccc1)c1nn(-c2ccc(Cl)cc2)c(=O)cc1C(F)(F)F	4.0	-4%	5%	-15%	0.0	-2
O=C(Cc1ccccc1F)Nc1cccc(S(=O)(=O)N2CCOCC2)c1	-0.3	-4%	6%	.	.	0
O=C(O)c1ccccc1C(=O)N1N=C2/C(=C/c3cccc([N+](=O)[O-])c3)CCCC2C1c1cccc([N+](=O)[O-])c1 (centres undefined)	0.1	-20%	2%[15.4 µM]	-0.4%	1.7	6
COC(=O)CSc1nnc(CNc2ccc(Cl)cc2)n1Cc1ccccc1	1.1	?	-3%	-4.1%	1.6	-24
O=C(Nc1ccc(F)cc1)C1CCCN1S(=O)(=O)c1ccc(Br)cc1 (centres undefined)	0.7	-7%	-77%[inhibitor]	-2.4%	4.9	-17
CCCN(CCC)C(=O)CSc1nc2ccccc2c(=O)n1C1CCCC1	0.1	?	2%	0.7%	3.2	83
N/C(=N\OC(=O)c1ccccc1Cl)c1cccc([N+](=O)[O-])c1	0.4	8%	13%	-3.1%	2.6	7
O=C(CSCc1ccc(F)cc1)Nc1ccc(N2CCOCC2)cc1N1CCOCC1	-0.3	1%	-33%[inhibitor]	-0.5%	.	3
N#Cc1cn(Cc2ccncc2)c(=O)[nH]c1=O	0.3	12%	-56%[inhibitor]	.	-0.2	11
N#C/C(=C\c1c(N2CCCCCC2)nc2ccccn2c1=O)C(=O)NC1CCS(=O)(=O)C1 (centres undefined)	-0.8	-4%	-14%	-3.6%	2.7	-11
Cc1ccc(S(=O)(=O)CCC(=O)Nc2nc(C(C)(C)C)cs2)cc1	1.5	-4%	-24%	-1.0%	-0.8	10
Cc1ccc(N2CC(C(=O)Nc3nnc(SCC(=O)NCC4CCCO4)s3)CC2=O)cc1 (centres undefined)	-0.4	5%	21%	1.1%	2.6	9
CCN(CC)CCCNc1nc2ccccc2c2[nH]c3ccc(OC)cc3c12	0.1	-10%	-4%	?	.	-2
CCCn1c(CCC(=O)Nc2ccccc2Cc2ccccc2)nc2cc(S(=O)(=O)N3CCOCC3)ccc21	2.0	-20%	1%	-2.8%	0.5	11
Cc1cccc(NC(=O)COC(=O)CCc2c[nH]c3ccccc23)c1	0.4	-5%	-12%	4.6%	.	7
C/C(=N\Nc1ncc(Cl)cc1Cl)c1ccc(S(=O)(=O)NCc2ccco2)cc1	4.2	-26%	-1%	-1.3%	-1.3	-24
O=C(CSc1ccc2ccccc2n1)N1CCC(c2noc3ccc(F)cc23)CC1	0.1	-22%	-9%	.	2.2	-15
Cc1ccc(-c2csc(NC(=O)N3CCOCC3)n2)cc1	1.4	-2%	2%	.	0.2	-25
CN(C)c1ccc(NC(=O)CN2C(=O)c3ccccc3C2=O)cc1	-1.6	-5%	-2%[15.4 µM]	-1.2%	-0.8	17
Cn1c(N)c(C(=O)N2CCN(c3ccccc3)CC2)c(=O)n(C)c1=O	0.0	.	-6%	-2.3%	.	-1
CCOc1ccccc1C(=O)NN1C(=O)C2CCCCC2C1=O (centres undefined)	-0.4	0%	-1%	-20%	2.9	11
COc1ccc(N2CCN(c3nc4c(c(=O)n(C)c(=O)n4C)n3Cc3ccccc3)CC2)cc1	2.0	-8%	?	-1.8%	-0.4	9
N#Cc1ccc(NC(=O)Nc2ccc(Oc3ccc(NC(=O)Nc4ccc(C#N)cc4)cc3)cc2)cc1	-0.8	0%	-24%[15.4 µM]	.	-12	2
C[C@H](CO)N1C[C@H](C)[C@@H](CN(C)S(=O)(=O)c2ccc(F)cc2)Oc2c(NC(=O)CCC(F)(F)F)cccc2C1=O	-0.3	-8%	.	1.8%	.	30
COc1ccc(NC(=S)N(CCc2c(C)[nH]c3ccccc23)Cc2ccco2)cc1	-1.0	-20%	12%	0.7%	2.5	-8
O=S(=O)(c1ccccc1)N1CCN=C1SCc1c(F)cccc1Cl	1.3	?	-57%[inhibitor]	1.6%	4.1	54
c1ccc(C2=Nn3c(nnc3-c3cccnc3)SC2)cc1	0.4	-3%	-2%	0.2%	-1.7	29
Cc1ccc(C(=O)Nc2ccc(N3CCN(C(=O)c4ccco4)CC3)cc2)c(Cl)c1	2.9	-10%	-10%	.	-2.5	-15
N#Cc1ccc(-c2ccc(OCC(O)CN3CCCCC3)cc2)cc1 (centres undefined)	1.4	9%	-4%[15.4 µM]	.	1.6	-13
COc1cc(C(=O)Oc2ccc(/C=N/NC(=O)c3ccncc3)cc2)cc(OC)c1OC	0.0	?	24%	-0.3%	-0.6	29
O=C(O)CN1C2=NCCCN2c2ccccc21	0.8	.	-6%[15.4 µM]	.	-3.2	-14
COc1cccc(N2CC34C=CC(O3)C(C(=O)O)C4C2=O)c1 (centres undefined)	0.4	15%	21%	-0.9%	-3.1	-7
CC[C@]1(C(=O)OC)[C@H]2C(=O)N(C)C(=O)[C@H]2[C@H]2CN(C)C(=NCc3ccccc3)N21	0.5	8%	.	0.7%	.	6
COc1ccccc1-c1noc(-c2ccc(N3CCN(c4ccccc4)CC3)c([N+](=O)[O-])c2)n1	-0.1	.	.	2.7%	.	1
Cc1ccccc1Cn1c(C(=O)O)c(CNCc2cccc(F)c2)c2ccccc21	-0.2	.	.	-24%	.	0
COCCNc1nc2c(S(=O)(=O)c3ccc(C)c(C)c3)nnn2c2ccc(Cl)cc12	-1.1	.	.	-24%	.	0
Cn1c(=O)[nH]c(=O)c2c1nc(CN1CCN(c3ccccc3F)CC1)n2CCCc1ccccc1	0.6	4%	2%	1.0%	-5.3	5
O=C(CN1CCOCC1)Nc1ccccc1-c1ccccc1	0.3	9%	4%	-0.6%	0.2	19

More structures:
SMILES	TRPML1 agonist	gsp antag	gsp ag	ClpP mod	Menin-MLL FL inh	TRPML1 inh
CCOC(=O)N1CCN(c2c(NC3CCN(Cc4ccccc4)CC3)c(=O)c2=O)CC1	0.1	-1%	-32%[inhibitor]	2.1%	-0.8	9
C[C@@H]1CN([C@@H](C)CO)C(=O)Cc2cc(NC(=O)Nc3cccc4ccccc34)ccc2O[C@@H]1CN(C)S(C)(=O)=O	-0.6	-2%	.	-16%	.	26
Cc1cc(C)cc(NC(=O)Nc2cc(-c3ccccc3)nn2C)c1	1.1	-18%	19%	.	0.3	50
COc1cccc(COc2ccc3c(C)c(Cc4ccccc4)c(=O)oc3c2)c1	2.7	-5%	-6%	13µM*	.	73
COc1cc(/C=C2/C(=O)N(C)C(=S)N2C)ccc1OCc1cccc(F)c1	0.6	-1%	-3%	.	?	-5
C[n+]1ccccc1C1CCCC/C1=N\Nc1ccc([N+](=O)[O-])cc1[N+](=O)[O-] (centres undefined)	0.2	14%	-11%	-5.2%	2.2	-14
CCS(=O)(=O)c1nc(S(=O)(=O)c2ccc(Cl)cc2)c(NCCOC)s1	1.0	1%	0%	0.6%	-1.1	10
COc1ccccc1NC(=O)CCc1c(C)[nH]c(=O)c(C#N)c1C	1.1	6%	11%	-7.3%	1.0	17
CCCC(c1nnnn1CCc1ccccc1)N1CCC(C(N)=O)CC1 (centres undefined)	0.7	2%	-4%	-2.0%	0.1	11
CCOCCOC(=O)c1[nH]c2c(c1C)C(=O)CC(c1ccc(N(C)C)cc1)C2 (centres undefined)	2.5	-19%	7%	-2.9%	0.3	11

Molecules from the list above that have a furan ring, fused or not, in the order listed:
SMILES	TRPML1 agonist	gsp antag	gsp ag	ClpP mod	Menin-MLL FL inh	TRPML1 inh
C/C(=N\Nc1ncc(Cl)cc1Cl)c1ccc(S(=O)(=O)NCc2ccco2)cc1	4.2	-26%	-1%	-1.3%	-1.3	-24
COc1ccc(NC(=S)N(CCc2c(C)[nH]c3ccccc23)Cc2ccco2)cc1	-1.0	-20%	12%	0.7%	2.5	-8
Cc1ccc(C(=O)Nc2ccc(N3CCN(C(=O)c4ccco4)CC3)cc2)c(Cl)c1	2.9	-10%	-10%	.	-2.5	-15

Later entries
SMILES	TRPML1 agonist	gsp antag	gsp ag	ClpP mod	Menin-MLL FL inh	TRPML1 inh
Cc1nccn1Cc1ccccc1	-0.7	0%	.	0.7%	6.2	-1
COc1ccccc1OCCNC(=O)CCS(=O)(=O)c1ccccc1	0.4	6%	-10%	-1.8%	.	-8
COC(=O)c1[nH]c2cc(OC)ccc2c1NC(=O)c1ccc2c(c1)OCO2	-0.5	-18%	19%	114%	-2.4	-4
COc1ccc(NC(=O)NC(C)c2c(-n3cccc3)sc(C)c2C)cc1OC (centres undefined)	0.3	.	.	0.6%	.	12
COc1cc(/C=C/C(=O)NC(C)CCc2ccccc2)cc(OC)c1OC (centres undefined)	-0.9	-6%	5%	?	2.6	1
COc1ccc(/C=N/NC(=O)c2cccc([N+](=O)[O-])c2)cc1OC(=O)c1ccc(C)cc1	2.9	-14%	-38%[inhibitor]	-3.5%	0.3	11
O=S(=O)(c1ccccc1F)N1CCN(Cc2cc3c(cc2O)OCO3)CC1	-0.7	-4%	4%	2.1%	.	-7
CCCCNC(=O)c1cc([N+](=O)[O-])[nH]n1	0.5	3%	-22%	0.8%	4.3	9
CC(=O)c1ccc(N2CCN(S(=O)(=O)c3cccc(S(=O)(=O)N4CCOCC4)c3)CC2)cc1	-1.1	11%	29%	0.0%	1.1	0

Bioassay records: PubChem, National Center for Advancing Translational Sciences (NCATS)

Not a hit list; 2.1% or so of the library scored in one or more.
